# Source: PubChem
# Biofilm kill mix = clotrimazole potentiators killing C. albicans biofilm, primary screen, 4-compound mixtures. C. albicans biofilm persisters + clotrimazole, fluorescence viability; primary screen in compound mixtures of four per well. inhibition, % at 7.6 µM. hit rate 0.02% among 120,000;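 active means inhibition above 30.3% in the primary screen of four-compound pools, then above 30% when the compound was retested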;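 further: compounds exposed to preformed 24 h biofilms for 48 h; the number belongs to the whole pool; some results filed as inactive read as strong as hits; inactives centre near 12; 0% = biofilm with clotrimazole alone and 100% = kill control; retested singly at about 60 µM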
#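 Assay system: C. albicans biofilms / Medium: RPMI/MOPS medium, pH 7.0 / Schedule: biofilm formation 24 h, compound exposure 48 h, 37 °C / Measured by: Alamar Blue fluorescence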
# Active calls of the source: *.
SMILES,Biofilm kill mix
O=C(COc1ncnc2scc(-c3ccccc3)c12)NC1CCCc2ccccc21 (configuration not stated),13
O=S(=O)(Nc1cc(S(=O)(=O)N2CCOCC2)ccc1N1CCCC1)c1cccs1,12
Cc1nnc(SCC(=O)NC(=O)NCc2ccco2)s1,13
Cc1nnc(SCC(=O)NC2CCS(=O)(=O)C2)n1-c1ccccc1 (configuration not stated),5
c1cnc2nc(CSc3ncn[nH]3)cn2c1,12
CCCNC(=O)N1CCCC(C(=O)c2cccc(Cl)c2)C1 (configuration not stated),21
COc1ccccc1NS(=O)(=O)c1ccc2oc(SCc3ccc(C#N)cc3)nc2c1,17
CCOc1ncccc1C(=O)Nc1nc(C(C)(C)C)cs1,2
N#C/C(=C\c1ccco1)c1nc2ccccc2s1,6
COc1cccc(C(=O)NC(=S)Nn2cnnc2)c1OC,17
O=C(CN1C(=O)NC2(CCCC2)C1=O)Nc1ccc(S(=O)(=O)N2CCOCC2)cc1,14
O=C(N/N=C/c1c(O)n(Cc2ccccc2)c(=O)c2ccccc12)c1cccnc1,7
COc1ccc(C(C)=O)cc1CSC(=N)N,6
C=CCn1c(N)cc(=O)nc1SC(C)C(=O)Nc1cccc2ccccc12 (configuration not stated),8
Cc1ccc(N(CCC(=O)O)S(=O)(=O)c2cccc(C(F)(F)F)c2)cc1,-3
Cc1ccc(OCCOCCNC(C)(C)C)c([N+](=O)[O-])c1,-1
O=C(CCc1nnc(COc2ccccc2)o1)NC1(c2ccccc2)CC1,11
CCOc1ccc(CCNC(=O)CCc2nc3ccccc3[nH]2)cc1OCC,14
CC1=NNC(=O)C1CC(=O)N/N=C/c1ccncc1 (configuration not stated),14
CC(=O)c1nn(-c2ccc(Br)cc2)cc1C(=O)c1ccccc1,17
COc1ccc(/C=C/C(=O)Nc2cc(C)nn2-c2nc3ccccc3[nH]2)cc1,19
COC(=O)/C=C1\OC(c2ccccc2)=CC1=O,15
O=C(Nc1ccccc1)Nc1ccccc1-n1ccnc1,11
CC1(C)C([N+](=O)[O-])C(c2ccc(O)cc2)NC(c2ccc(O)cc2)C1[N+](=O)[O-] (configuration not stated),9
O=C(CC1SCCNC1=O)Nc1ccc(F)c(Cl)c1 (configuration not stated),11
CNC(=S)/N=C/NOCc1ccc(Cl)cc1Cl,19
NC(=O)NC(=O)COC(=O)CN1C(=O)C2CCCCC2C1=O (configuration not stated),11
O=C(CCc1ccccc1)C(=O)N1CCCC(C(=O)c2cccc(Cl)c2)C1 (configuration not stated),22
COc1ccc2c(C)cc(C)nc2n1,14
O=S(=O)(Nc1ccc(N2CCOCC2)cc1)c1ccc(F)cc1F,3
COc1ccc(C)cc1S(=O)(=O)N(CC(=O)Nc1cc([N+](=O)[O-])ccc1C)c1ccc(C)c(C)c1,12
CCC1CCCCN1C(=O)CCn1ccnc1 (configuration not stated),10
O=C(/C=C/c1cccc([N+](=O)[O-])c1)NC(=S)Nc1ccccc1C(=O)O,15
COc1ccc(Nc2cc(Cl)nc(N)n2)cc1OC,12
Cc1ccccc1CCN(C(=O)Cn1nnc2ccccc21)C(C(=O)NCC1CCCO1)c1nc2ccccc2n1C (configuration not stated),22
O=C(NNC(=O)c1ccc(NC(=O)c2ccccc2)cc1)Nc1ccccc1,4

# Retrieved one by one from the entries so far:
SMILES,Biofilm kill mix
CC(=O)c1nn(-c2ccc(Br)cc2)cc1C(=O)c1ccccc1,17
O=C(CC1SCCNC1=O)Nc1ccc(F)c(Cl)c1 (configuration not stated),11
c1cnc2nc(CSc3ncn[nH]3)cn2c1,12

# (list continues)
SMILES,Biofilm kill mix
COc1ccc2[nH]c(=O)c(CN(C(=O)c3cccnc3)c3cc(C)ccc3C)cc2c1,22
Cc1sc(NC(=O)CSc2nnnn2C(C)C)c(C#N)c1C,25
COc1ccc2ccc3c(c2c1)N=CC1(O3)N(C)c2ccccc2C1(C)C (configuration not stated),17
Cc1sc2nc(CN(C(=O)NCc3ccccc3)C3CCCC3)[nH]c(=O)c2c1C,14
O=c1ccn(CCc2c[nH]c3ccccc23)c2c1CCCC2,6
Clc1ccccc1Cc1noc(CN2CCCCC2c2ccccn2)n1 (configuration not stated),6
CN(CC(=O)Nc1cccc(F)c1)CC(=O)Nc1ccc(Cl)cc1[N+](=O)[O-],5
O=C(CS(=O)(=O)Cc1ccccc1)Nc1ccc(Cl)cn1,12
CCc1ccc(C(=O)Nc2cc(C)ccc2F)s1,12
Cc1ccc(S(=O)(=O)N2CCC(C(=O)NNC(=O)c3cccnc3)CC2)cc1,9
Cc1ccc(S(=O)(=O)N2CCN(CC(=O)N/N=C\c3ccc(Cl)c([N+](=O)[O-])c3)CC2)cc1,8
COc1ccc(CCNC(=O)CSc2nc3ccccc3c3nc(CCN4CCCCC4)nn23)cc1OC,10

# The final 3 compounds of the part above come first, to join the parts:
SMILES,Biofilm kill mix
Cc1ccc(S(=O)(=O)N2CCC(C(=O)NNC(=O)c3cccnc3)CC2)cc1,9
Cc1ccc(S(=O)(=O)N2CCN(CC(=O)N/N=C\c3ccc(Cl)c([N+](=O)[O-])c3)CC2)cc1,8
COc1ccc(CCNC(=O)CSc2nc3ccccc3c3nc(CCN4CCCCC4)nn23)cc1OC,10
CC(C)OCCCNC(=O)Cc1ccc(Br)cc1,15
O=C(N/N=C/C1CC2CCC1C2)c1ccc2c(c1)OCO2 (configuration not stated),15
COc1ccc2cc(CN(Cc3cccs3)Cc3nnnn3Cc3ccccc3)c(=O)[nH]c2c1,13
C/C(=N\Nc1nc(-c2ccc(C)cc2C)cs1)c1cc2ccccc2oc1=O,11
O=C(CNC(=O)c1ccc(S(=O)(=O)N2CCCC2)cc1)N/N=C/c1ccccc1,12
Cc1cccc(-n2c(C)cc(C(=O)NC3CCCCC3)c2C)c1,7
COc1ccc(CN2C(=O)NC3(CCCCCC3)C2=O)cc1F,10
O=c1c2cc(N3CCOCC3)ccc2[nH]c(=S)n1Cc1ccccc1Cl,8
O=C(NCc1ccon1)c1ccc(OC2CCN(CCc3ccccc3)CC2)cc1,13
CCOc1cc(/C=N/Nc2ccccc2Cl)ccc1OCC(=O)O,-5
COc1ncccc1-c1nnn(-c2ccccc2)n1,19
CC(=O)Nc1ccc(NC(=O)c2ccc(CSc3ccccc3)o2)cc1,1
COc1ccc(CCNC(=O)COC(=O)C2CCCCC2)cc1,6
COC(=O)c1c(SCC(=O)Nc2ccc(C)c(C)c2)nc(=O)[nH]c1C,7
CN1CCN(CC(=O)N/N=C/c2ccc(F)c(F)c2)CC1,21
Cc1c(CNC2CCCC(C)C2C)c(C(=O)O)c(C)n1Cc1ccccc1 (configuration not stated),13
NC(=O)CC[C@H](NC(=O)c1ccc(F)cc1)C(=O)OCC(=O)Nc1ccc(N2CCOCC2)cc1,11
O=C(CCl)Nc1cn(-c2ccccc2)nc1-c1ccccc1,15
CCN(CC)CC(C)OC(=O)COc1ccc(OC)cc1 (configuration not stated),4
Cn1c(O)c(/C=N/Nc2ccccc2)c(=O)n(C)c1=O,21
CCCCCCC[C@H](N)[C@H](O)C(=O)N(C)[C@@H](CCS(C)=O)C(=O)N[C@@H](Cc1ccc(O)cc1)C(=O)N[C@@H](Cc1ccc(O)cc1)C(=O)O (some centres not stated),11
Nc1[nH]c(N=NC(=O)c2ccc(F)cc2)c2ccccc12,17
O=C(CSc1cccc[n+]1[O-])Nc1cc(S(=O)(=O)N2CCOCC2)ccc1N1CCOCC1,10
COc1ccc(NC2=C(C(C)=O)C(c3ccc(OC)cc3)C(C(C)=O)C(C)(O)C2)cc1 (configuration not stated),-1
COc1cc(CNc2ccc(CNc3ncn[nH]3)cc2)ccc1OCC(=O)NC(C)(C)C,12
COC(=O)C1SCC2C(=O)N(Cc3ccc(F)cc3)CC(=O)N21 (configuration not stated),15
CN1CCCC(OC(=O)c2cccc(S(=O)(=O)N3CCCCCC3)c2)C1 (configuration not stated),13
Cc1nonc1N1CCN(Cc2cn[nH]c2-c2ccc(F)cc2F)CC1,3
Cc1ccccc1C1=NC(C(F)(F)F)(C(F)(F)F)c2c(n(C)c(=O)n(C)c2=O)N1,14
COc1ccc(-c2csc(NC(=O)COc3ccc(N(C)S(=O)(=O)c4ccc(C)cc4)cc3)n2)cc1,17
N/C(=N\N=C\c1ccc2c(c1)OCO2)c1nonc1N,14
Cc1c(NC(=O)/C(C#N)=C/c2ccc(-c3ccc(Cl)c(Cl)c3)o2)c(=O)n(-c2ccccc2)n1C,11
Cn1c2ccccc2c(=O)c2c(=O)n(Cc3ccco3)c(-c3ccc(F)cc3)nc21,12
O=c1c2c(-c3ccc([N+](=O)[O-])cc3)csc2nc2n1CCCCC2,3
CCOC(=O)C1(Cc2ccccc2Cl)CCN(C(=O)CCn2ccnc2C)CC1,10
CCOC(=O)C1=C(c2ccccc2)NC(=S)NC1c1ccc(C)c([N+](=O)[O-])c1 (configuration not stated),9
Cc1cc(=O)[nH]c(SCc2cccc3cccnc23)n1,2
CSC1=NNC(c2ccc(C(C)(C)C)cc2)=NN1,-2
C=C(C)CN1C(=O)C(=O)N(CC(=C)C)C1=O,21
NC(=O)NC(=O)COC(=O)CNS(=O)(=O)c1ccc(F)c(F)c1F,9
CC(=O)n1cc(N(C(=O)CCl)c2ccc(C)cc2)c2ccccc21,21
CC(NC(=O)OC(C)(C)C)C(=O)NC(CCC(=O)OCc1ccccc1)C(N)=O (configuration not stated),18
O=C(COC(=O)C1CCCCC1)Nc1ccc(S(=O)(=O)N2CCOCC2)cc1,2
Cn1cccc1/C=N/NC(=O)c1ccncc1,21
O=C(CN1C(=O)C(=O)N(Cc2ccccc2)C1=O)Nc1cc(Cl)cc(Cl)c1,21
O=C1NCCN(Cc2ccc(-c3ccccc3)cc2)C1CC(=O)N1CCN(CCO)CC1 (configuration not stated),7
CC1CCCN(c2ccc(C(=O)Nc3ccc4c(c3)OCO4)cc2[N+](=O)[O-])C1 (configuration not stated),13
CN1CCN(/N=C/c2nc(-c3cccc([N+](=O)[O-])c3)n3ccccc23)CC1,18

# Already shown: seven of the compounds above.
SMILES,Biofilm kill mix
Cc1cc(=O)[nH]c(SCc2cccc3cccnc23)n1,2
CSC1=NNC(c2ccc(C(C)(C)C)cc2)=NN1,-2
C=C(C)CN1C(=O)C(=O)N(CC(=C)C)C1=O,21
NC(=O)NC(=O)COC(=O)CNS(=O)(=O)c1ccc(F)c(F)c1F,9
CC(=O)n1cc(N(C(=O)CCl)c2ccc(C)cc2)c2ccccc21,21
CC(NC(=O)OC(C)(C)C)C(=O)NC(CCC(=O)OCc1ccccc1)C(N)=O (configuration not stated),18
O=C(COC(=O)C1CCCCC1)Nc1ccc(S(=O)(=O)N2CCOCC2)cc1,2

# More structures.
SMILES,Biofilm kill mix
COC(=O)c1ccc(OC(=O)c2ccccc2F)cc1,16
CC(C)[C@H](NC(=O)c1ccco1)C(=O)OCC(=O)NC12CC3CC(CC(C3)C1)C2,6
O=C(CN1c2cccc3cccc(c23)S1(=O)=O)Nc1cccc(S(=O)(=O)N2CCOCC2)c1,15
COc1ccc(C(=O)NCC(=O)OCC(=O)Nc2ccc(C)c(S(=O)(=O)N(C)C)c2)cc1OC,21
O=C(Nc1nc2ccsc2c(=O)s1)c1ccc(F)cc1Cl,12
CCn1c2ccccc2c(=O)c2ccccc21,11
CCOC(=O)c1nn(-c2ccccc2)c(=O)cc1SC1CCCCC1,12
COC(=O)c1ccc(CN2CCC(CO)(Cc3ccc(OC)cc3)CC2)cc1,19
COCCn1c(SCC(=O)Nc2ccc(OC)cc2)nc2c(oc3ccccc32)c1=O,-2
Cc1ccc(C(=O)Nc2ccccc2N2CCCCC2)cc1[N+](=O)[O-],4
N#C/C(=C/c1cccn1-c1cccc(C(=O)O)c1)c1ccc(F)cc1,18
O=C(NCc1ccccc1Cl)c1cc([N+](=O)[O-])ccc1Cl,5
CCC(C)n1c(/C=C/c2ccccc2)nc2ccccc21 (configuration not stated),16
O=C(N/N=C/c1ccc(Br)s1)c1ccccn1,15
CCCCn1c(SCc2cc(=O)[nH]c3ccccc23)nc2c1c(=O)n(C)c(=O)n2C,9
CC1CC(CN)CC(CO)C1 (configuration not stated),12
Cc1sc2ncnc(SC(C)C(=O)N3c4ccccc4Sc4ccccc43)c2c1C (configuration not stated),15
O=C(NNC(=O)c1cnccn1)c1ccc(Cl)cc1,14
CCCCC(c1nnnn1CCOC)N1CCN(C)CC1 (configuration not stated),-13
C=CCn1cnc2sc(C(=O)Nc3ccccc3OC)c(C)c2c1=O,9
Cc1c(C#N)c(N)nc2c3c(sc12)NC(=O)CC3c1ccc(F)cc1 (configuration not stated),-6
O=[N+]([O-])c1ccc(N2CCN(C(=S)Nc3ccccc3)CC2)cc1,7
COc1ccc2c(c1)c(CC(=O)Nc1ccccc1OC)c(C)n2C(=O)c1ccc(Cl)cc1,14
CC(C)Nc1nnc(Sc2ccc(Cl)cc2[N+](=O)[O-])s1,5
COc1ccc2cc(C(=O)C3CCCN(C(=O)CCc4ccccn4)C3)ccc2c1 (configuration not stated),12
Cc1ccccc1C(=O)NC(=S)Nc1ccc2[nH]c(=O)[nH]c2c1,-2
COc1ccc(-c2cc(C(F)(F)F)nc(SCC(=O)Nc3ccc4c(c3)OCO4)n2)cc1OC,14

# Sorted by molecular weight (ascending): some entries from above.
SMILES,Biofilm kill mix
CCCCC(c1nnnn1CCOC)N1CCN(C)CC1 (configuration not stated),-13
O=[N+]([O-])c1ccc(N2CCN(C(=S)Nc3ccccc3)CC2)cc1,7
CCCCn1c(SCc2cc(=O)[nH]c3ccccc23)nc2c1c(=O)n(C)c(=O)n2C,9

# Not all compounds are listed; count on the stated rates, not on these rows.
